Screening results from PubChem BioAssay.
GALR2 agonist: GALR2 (human) receptor agonism. GALR2-expressing cells, agonist activation read-out. activation, %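 (tested at 5 µM)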. 0.48% of 140,000 active. AID 803;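 active = above mean plus 3 SD of all compounds, about 5% in these data, not always enough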;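 also: 0% = vehicle buffer wells and 100% = reference agonist at full effect; tested in CHO reporter cells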
Target sequence (O43603 whole entry, looked up): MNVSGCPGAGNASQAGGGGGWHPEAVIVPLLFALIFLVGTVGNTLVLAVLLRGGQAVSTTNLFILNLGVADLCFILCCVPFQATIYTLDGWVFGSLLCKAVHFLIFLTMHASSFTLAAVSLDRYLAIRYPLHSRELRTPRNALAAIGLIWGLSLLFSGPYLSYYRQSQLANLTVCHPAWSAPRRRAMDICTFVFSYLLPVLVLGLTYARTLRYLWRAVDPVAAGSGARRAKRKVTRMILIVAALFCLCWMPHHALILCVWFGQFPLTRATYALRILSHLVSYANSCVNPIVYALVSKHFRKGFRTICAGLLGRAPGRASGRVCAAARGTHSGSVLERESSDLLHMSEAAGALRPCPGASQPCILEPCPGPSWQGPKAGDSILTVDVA
RGS16-Gao: RGS16-Galphao interaction regulator (human); bead-based flow cytometry RGS16-Galphao binding, fluorescence; actives lie on both sides; 0.38% of 220,000 active; binding response (% of control), % at 10 µM; AID 1441; O15492+P09471;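 active = below 25% or above 175%, edge rows of some plates excepted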;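 also: Galphao activated by GDP with aluminum fluoride before binding; 100% = wells without compound and 0% = beads without RGS; some results beyond the cut were filed as inactive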
Target sequence (O15492 whole entry, looked up): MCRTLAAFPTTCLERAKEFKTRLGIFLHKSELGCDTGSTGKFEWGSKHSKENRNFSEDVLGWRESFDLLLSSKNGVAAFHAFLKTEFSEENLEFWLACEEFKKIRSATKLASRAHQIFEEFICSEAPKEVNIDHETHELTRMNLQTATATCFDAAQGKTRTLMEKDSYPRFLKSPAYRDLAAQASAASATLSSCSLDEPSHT
Target sequence (P09471 whole entry, looked up): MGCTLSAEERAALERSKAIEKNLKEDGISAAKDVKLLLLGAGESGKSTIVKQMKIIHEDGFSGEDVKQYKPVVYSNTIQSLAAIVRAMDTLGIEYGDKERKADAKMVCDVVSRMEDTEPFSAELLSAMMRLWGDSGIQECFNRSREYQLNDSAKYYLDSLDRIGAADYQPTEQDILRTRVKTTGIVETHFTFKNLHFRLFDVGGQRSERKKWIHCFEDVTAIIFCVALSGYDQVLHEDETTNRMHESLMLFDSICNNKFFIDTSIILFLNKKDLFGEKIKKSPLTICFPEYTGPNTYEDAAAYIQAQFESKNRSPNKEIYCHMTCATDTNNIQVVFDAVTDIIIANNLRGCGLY
Insulin prom inh: TRM-6 insulin promoter activity inhibition; 0.9% of 130,000 active; inhibition, % at 2 µM; TRM-6 cells (human fetal islet line), insulin promoter-eGFP reporter, imaging; reporter expression induced with tamoxifen;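 active = inhibition above the mean plus 3 SD, with well images judged a real hit on visual review, cut at about 60% in these data, passing the limit was not always enough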
HSV replic up: HSV replication enhancement | HSV replication augmentation in cells, fold increase | maximum fold increase | 0.005% of 220,000 active | AID 1956;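 active = peak rise of 1.5-fold or more in the series; tested in PC3 cells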;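 also: first round at 10 µM; read as green reporter fluorescence; hits show the peak of a series up to 25 µM; 1 = signal of infected wells without compound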
PKD1 inh: blocks activity of human protein kinase D1. Q15139. PKD1 kinase fluorescence polarization assay. inhibition, %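 (about 10 µM by stock and volumes)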. 0.056% of 200,000 active;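 active = inhibition of 50% or more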;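 also: controls were vehicle for no effect and a reference inhibitor for full effect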
Insulin prom inh cell count: further read-out of Insulin prom inh, marked with its call; normalized cell count, %; measured here: cell count, toxicity; reference of the scale not given here;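 cells exposed to compound for 48 h; stained nuclei by imaging scaled within each plate; lower means fewer cells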
HSV replic up primary fold: second read-out of HSV replic up, no call of its own (marks repeat the call); fold increase; compound at 10 µM; measured here: primary screen fold increase 10 uM; tested in PC3 cells;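 GFP signal in the first replicate; 1 = infected wells without compound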
* hit, by the source's call; i = inactive; / = not tested or not shown. The order is random; overall some 1.3% were active at least once.

SMILES	GALR2 agonist	RGS16-Gao	Insulin prom inh	Insulin prom inh cell count	HSV replic up	HSV replic up primary fold	PKD1 inh
CCOc1cc(-c2nc(-c3ccccc3OC)no2)cc(OCC)c1OCC	0.6	102	-121	123	i	1.1	-4
COc1ccc(S(=O)(=O)N2CCOCC2)cc1Br	/	101	21	99	i	0.98	3
CCN(CC)CCNC(=O)c1nn(-c2ccc(C)cc2)c(=O)c2c1c1ccccc1n2C	-0.4	99	-51	116	i	0.5	-3
CN1CCC(=NNC(=O)CSc2ccc(Cl)cc2)CC1	/	97	/	/	i	0.95	1
CCOC(=O)[C@@H]1CCN(Cc2ccccc2)C[C@H]1c1ccccc1	/	99	/	/	i	1.1	/
C=CCn1c(C)c(C(C)=O)c(N2CCN(C(c3ccccc3)c3ccccc3)CC2)nc1=S	/	126	36	96	i	1.1	2
O=C(O)c1ccc(NS(=O)(=O)c2ccc(Cl)c(Cl)c2)cc1O	-0.8	102	/	/	i	1	-2
CCOC(=O)c1sc(NC(=O)CSc2nncs2)c(C(=O)OCC)c1C	-1.6	103	/	/	i	0.85	-6
c1ccc(C2Nc3ccccc3-c3nc4ccccc4n32)cc1 (stereo unspecified)	-0.4	156	7	98	i	0.89	3
Cc1nn(-c2ccccc2)c2c1P(=O)(O)/C(=C1\N(C)c3ccccc3C1(C)C)C=N2	-0.8	99	/	/	i	0.91	-5
CCC(C)c1ccccc1NC(=O)CN1CCN(C/C=C/c2ccccc2)CC1 (stereo unspecified)	1.7	114	8	109	i	0.83	-5
COC(=O)CSc1cc(C(=O)c2nccn2C)c2ccccc2n1	-1.1	108	-35	101	i	0.97	0
C=CCNC(=S)NNC(=O)CSc1nc2ccccc2s1	-1.5	104	38	113	i	0.89	-7
CCOC(=O)c1c(NC(=O)COC(=O)c2nc(Cl)ccc2Cl)sc2c1CCC2	-0.5	97	3	121	i	1	-2
COCCn1c(SCC#N)nnc1-c1ccccc1	-1.7	94	-19	136	i	0.99	-7
CCN(CC)Cc1c(O)c(Cl)cc2c3c(c(=O)oc12)CCCC3	4.2	96	-24	73	i	0.97	2
Cc1ccc2nc3nc(NCC4CCCO4)c(C(=O)NC4CCCC4)cc3c(=O)n2c1 (stereo unspecified)	0.3	102	/	/	i	1.1	-4
N#C/C(=C\c1ccc(-c2ccccc2[N+](=O)[O-])o1)C(N)=O	/	95	/	/	i	1	/
Cc1c(C(=O)/C=C/c2cccs2)oc2ccc(F)cc12	-0.8	114	-3	106	i	1	-1
CCc1cc2c(cc3c(=O)n(CC(=O)NCCCN(CC)CC)nc(CC)n32)s1	0.0	97	9	74	i	0.83	3
Cc1ccc(-c2noc(CSc3nnc(Cc4ccccc4)n3-c3ccc(Cl)cc3)n2)cc1	-0.5	104	0	69	i	1	-5
O=C(c1ccco1)c1cn(CC(=O)N2CCCC2)c2ccccc12	/	102	-23	77	i	0.87	-1
O=C(OC1CCN(c2ncc(C(F)(F)F)cc2Cl)CC1)c1ccccc1	-1.5	99	-7	165	i	0.94	7
CCOC(=O)c1c(/N=C/N(C)C)sc(C(=O)OC)c1C	-3.6	104	/	/	i	0.94	-13
CC1CN(C(NC(=O)c2ccccc2)C(Cl)(Cl)Cl)CC(C)O1 (stereo unspecified)	/	104	13	88	i	0.92	6
COCc1cc(=O)n2[nH]c(SC)nc2n1	-2.6	97	6	107	i	0.85	1
CC(=O)c1ccc(NC(=O)COC(=O)c2ccccc2Nc2ccccc2)cc1	-0.6	123	/	/	i	1.1	-6
CNC(=O)C(=O)NCC1OCCN1S(=O)(=O)c1ccc2c(c1)OCCO2 (stereo unspecified)	/	102	-22	141	i	0.94	0
O=c1c2cnn(-c3ccccc3)c2ncn1Cc1cccc(Cl)c1	0.0	102	43	134	i	0.96	-5
C/C=C/C(=O)N1CC2(CC(c3cccc(NC(=O)CC(c4ccccc4)c4ccccc4)c3)=NO2)C[C@H]1C(N)=O (stereo partly specified)	/	98	/	/	i	0.81	/
CCC1=C(OC(=O)N(CC)CC)N2C(=O)OC(=NCCOC)[C@]2(Cc2ccccc2)[C@H]2C1=CC[C@H]1C(=O)NC(=O)[C@H]12	/	104	/	/	i	0.92	/
CCc1ccc(-c2cc(C(F)(F)F)n3nc(C(=O)Nc4c(C)nn(Cc5ccccc5C)c4C)cc3n2)s1	-0.9	102	-11	94	i	0.85	-2
Cc1cc(C)nc(SCc2ccc(C(=O)N/N=C/c3ccccn3)cc2)n1	/	103	0	20	i	0.99	-6
COc1ccccc1NS(=O)(=O)c1ccc(NC(=O)Cc2cccs2)cc1	0.0	101	-9	96	i	0.81	5
O=C(NCCNc1ccc([N+](=O)[O-])cc1)c1ccc(Cl)cc1	/	103	19	101	i	1	-4
CC1(C)CN(O)CCN1O	-2.6	105	/	/	i	1.2	-12

An excerpt from above, showing only HSV replic up and GALR2 agonist.
| Structure | HSV replic up | GALR2 agonist |
| --- | --- | --- |
| CNC(=O)C(=O)NCC1OCCN1S(=O)(=O)c1ccc2c(c1)OCCO2 (stereo unspecified) | i | / |
| COCc1cc(=O)n2[nH]c(SC)nc2n1 | i | -2.6 |

Other structures follow:
SMILES	GALR2 agonist	RGS16-Gao	Insulin prom inh	Insulin prom inh cell count	HSV replic up	HSV replic up primary fold	PKD1 inh
CCCC(=O)NC(=S)Nc1ccccc1C(=O)OC	1.1	97	9	130	i	0.91	0
S=C(Nc1ccccn1)NC1CCCCC1	/	102	/	/	i	0.89	/
Cc1nc2ccc(S(=O)(=O)NC(C(=O)N3CCCCCC3)C(C)C)cc2s1 (stereo unspecified)	-1.3	99	/	/	i	0.96	-5
O=C(Nc1nccs1)c1ccc(NC(=O)C2CC=CCC2C(=O)O)cc1 (stereo unspecified)	/	95	/	/	i	0.9	-1
C=C(C)CSc1nncn1/N=C/c1ccc(OC)cc1	0.1	102	/	/	i	0.9	2
Cc1cc(C)nc(SCC(=O)Nc2ccc(N3CCOCC3)cc2)n1	-3.4	91	10	158	i	1	-1
CS/C(=C\[N+](=O)[O-])Nc1ccccc1	-1.9	100	29	103	i	0.78	10
CCCC(=O)NCCc1nc2ccccc2n1C	-1.3	102	-19	139	i	0.89	-6
CCCn1c(/C=C/c2ccco2)nc2ccccc21	-3.9	68	10	55	i	1.2	4
COc1cc2ncnc(NCc3ccc(C)cc3)c2cc1OC	-1.3	108	-230	99	i	1	-9
C#CCOCCOCCOCCNc1nc(N2CCN(C(=O)[C@H](Cc3ccc(O)cc3)n3cc([C@@H](N)C(C)CC)nn3)CC2)nc(N2CCN(C(=O)[C@H](CCCCN)n3cc([C@@H](N)CO)nn3)CC2)n1 (stereo partly specified)	/	109	/	/	i	0.53	-1
COc1cccc(NC(=O)c2ccc(S(=O)(=O)N(C)C)cc2)c1	/	92	36	42	i	0.94	-10
COc1ccc(C)cc1NC(=O)C(NC(=O)c1cc(OC)c(OC)c(OC)c1)C(C)C (stereo unspecified)	/	92	-433	41	i	0.97	1
CCOC(=O)c1ccc(NC(=O)CC2C(=O)N(c3cccc(OC)c3)C(=O)N2CCOC)cc1 (stereo unspecified)	-0.6	101	19	36	i	1	0
Cn1c2ccc(F)cc2c2ncn(CC3CCCO3)c(=O)c21 (stereo unspecified)	/	101	/	/	i	0.86	/
Cc1nnsc1C(=O)Nc1cccc(Cl)c1C	/	102	/	/	i	0.85	-6
CC(=O)c1c(C)[nH]c(C(=O)NC(C)c2ccccc2)c1C (stereo unspecified)	/	100	/	/	i	1	1
Cc1cc(C)c(S(=O)(=O)NC(CC(=O)O)c2cccc([N+](=O)[O-])c2)c(C)c1 (stereo unspecified)	/	102	15	117	i	0.86	-4
CC(O)(C#CCN1CCCCCC1)c1ccccc1 (stereo unspecified)	/	99	/	/	i	1.1	7
CCOC(=O)c1ccccc1NC(=O)N1CCn2c(C)ccc2C1CC (stereo unspecified)	-1.4	116	-131	62	i	1.2	8
Fc1ccc(CNc2ccc(CNc3ncn[nH]3)cc2)cc1	-0.6	106	/	/	i	1.2	3
O=C(NC(Cc1ccccc1)C(=O)O)/C(=C\c1ccc(Cl)cc1)NC(=O)c1ccccc1 (stereo unspecified)	/	100	6	106	i	1	4
CCNc1oc(-c2ccc(OC)cc2)nc1S(=O)(=O)c1ccc(Br)cc1	-0.7	103	43	99	i	0.97	8
NNC(=O)CNc1cccc(Cl)c1	/	109	21	118	i	0.97	1
CS(=O)(=O)c1ccc(C(=O)NC2CCCCC2)cc1	-1.0	101	/	/	i	0.88	3

Ordered by formula weight (ascending): 19 of the compounds above.
SMILES	GALR2 agonist	RGS16-Gao	Insulin prom inh	Insulin prom inh cell count	HSV replic up	HSV replic up primary fold	PKD1 inh
CCCn1c(/C=C/c2ccco2)nc2ccccc21	-3.9	68	10	55	i	1.2	4
CC(O)(C#CCN1CCCCCC1)c1ccccc1 (stereo unspecified)	/	99	/	/	i	1.1	7
COCCn1c(SCC#N)nnc1-c1ccccc1	-1.7	94	-19	136	i	0.99	-7
CC(=O)c1c(C)[nH]c(C(=O)NC(C)c2ccccc2)c1C (stereo unspecified)	/	100	/	/	i	1	1
Fc1ccc(CNc2ccc(CNc3ncn[nH]3)cc2)cc1	-0.6	106	/	/	i	1.2	3
O=C(c1ccco1)c1cn(CC(=O)N2CCCC2)c2ccccc12	/	102	-23	77	i	0.87	-1
CCOC(=O)[C@@H]1CCN(Cc2ccccc2)C[C@H]1c1ccccc1	/	99	/	/	i	1.1	/
CCN(CC)Cc1c(O)c(Cl)cc2c3c(c(=O)oc12)CCCC3	4.2	96	-24	73	i	0.97	2
O=c1c2cnn(-c3ccccc3)c2ncn1Cc1cccc(Cl)c1	0.0	102	43	134	i	0.96	-5
Cc1cc(C)nc(SCC(=O)Nc2ccc(N3CCOCC3)cc2)n1	-3.4	91	10	158	i	1	-1
CC1CN(C(NC(=O)c2ccccc2)C(Cl)(Cl)Cl)CC(C)O1 (stereo unspecified)	/	104	13	88	i	0.92	6
CCOc1cc(-c2nc(-c3ccccc3OC)no2)cc(OCC)c1OCC	0.6	102	-121	123	i	1.1	-4
O=C(OC1CCN(c2ncc(C(F)(F)F)cc2Cl)CC1)c1ccccc1	-1.5	99	-7	165	i	0.94	7
Cc1cc(C)c(S(=O)(=O)NC(CC(=O)O)c2cccc([N+](=O)[O-])c2)c(C)c1 (stereo unspecified)	/	102	15	117	i	0.86	-4
COc1ccccc1NS(=O)(=O)c1ccc(NC(=O)Cc2cccs2)cc1	0.0	101	-9	96	i	0.81	5
CCc1cc2c(cc3c(=O)n(CC(=O)NCCCN(CC)CC)nc(CC)n32)s1	0.0	97	9	74	i	0.83	3
Cc1ccc2nc3nc(NCC4CCCO4)c(C(=O)NC4CCCC4)cc3c(=O)n2c1 (stereo unspecified)	0.3	102	/	/	i	1.1	-4
CCNc1oc(-c2ccc(OC)cc2)nc1S(=O)(=O)c1ccc(Br)cc1	-0.7	103	43	99	i	0.97	8
C=CCn1c(C)c(C(C)=O)c(N2CCN(C(c3ccccc3)c3ccccc3)CC2)nc1=S	/	126	36	96	i	1.1	2
